Screening data deposited in PubChem by several laboratories.
Vif TR-FRET: HIV-1 Vif–A3G interaction blockers – biochemical, TR-FRET, GST-Vif 1-94, biotin-A3G peptide, dose response retest, primary screen (AID 1117319). TR-FRET GST-Vif / biotin-A3G peptide binding; higher % means a stronger effect; test concentration not given here; strong numbers were not always called active. one-dose inhibition, %; IC50 in µM for titrated hits. 0.57% of 260,000 active;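 active = above the screen mean plus three standard deviations and confirmed in dose response; inconclusive = results disagree or hit not tested in dose response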;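 note: Vif residues 1-94 fused to GST binding biotinylated APOBEC3G peptide 110-148; 0% = full assay without inhibitor and 100% = GST in place of GST-Vif; retest series ran down from 100 µM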
ALR inh: blocks human ALR sulfhydryl oxidase activity. P55789. purified ALR, DTT oxidation, H2O2 HRP-luminol luminescence. inhibition, % (no concentration beside the values). 3.8% of 290,000 active. AID 485317;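 active = mean and each replicate at 75% or more; inconclusive = only one of the two met; inactive = neither met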;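 note: stock transfer was 7.5 nL into about 7.5 µL; 0% = neutral wells and 100% = wells with inactivated enzyme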
Target sequence (P55789 whole entry, looked up): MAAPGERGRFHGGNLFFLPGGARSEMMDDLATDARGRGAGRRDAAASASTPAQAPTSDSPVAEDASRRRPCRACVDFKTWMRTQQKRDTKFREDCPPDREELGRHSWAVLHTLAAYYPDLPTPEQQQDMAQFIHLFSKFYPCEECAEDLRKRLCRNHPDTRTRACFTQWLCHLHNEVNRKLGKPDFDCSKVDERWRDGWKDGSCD
rRNA inh HTS: selective bacterial rRNA inhibition in E. coli; E. coli WT GFP vs humanized-ribosome RFP mutants, fluorescence, 24 h; stronger effect = lower value; DMSO median 0, no signal -100; GFP signal change (wild-type ribosome), % (no concentration beside the values); 1.6% of 350,000 active;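 active = significant combined selectivity score with lowered wild-type GFP, culture density cut under 30%, mutant RFP and density less affected; inactive = any of these conditions unmet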; note: one replicate is shown; some compounds called inactive have numbers as strong as hits
FGF22 binding: FGF22 (human) thermal shift binding | 1.5% of 340,000 active | calls only at 9.99 µM | recombinant FGF22 thermal shift, SYPRO orange fluorescence; percent of sucrose octasulfate shift, DMSO zero;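 active = melting point raised past a set limit in the mean and every replicate; inconclusive = no clear call; three in four hits are not shown here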
Target sequence (Q9HCT0 whole entry, looked up): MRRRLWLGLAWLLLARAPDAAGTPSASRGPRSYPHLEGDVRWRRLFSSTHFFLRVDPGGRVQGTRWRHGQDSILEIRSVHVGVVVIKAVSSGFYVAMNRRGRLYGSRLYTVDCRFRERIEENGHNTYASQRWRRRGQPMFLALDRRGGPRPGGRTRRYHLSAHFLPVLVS
AF4-AF9 inh: MLL-AF4/AF9 protein interaction inhibition; P42568; AlphaScreen, biotin-AF4 peptide binding to FLAG-AF9; inhibition, % at 10 µM; 0.47% of 350,000 active; AID 651704;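 active = every replicate reaching a set inhibition limit, whatever the replicate mean, cut at about 25% in these data; inconclusive = mean inhibition reaches that limit but some replicates miss it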;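 note: 0% = plate neutral control median and 100% = total signal loss; the record names both 10 and 1 µM as test concentration; the first replicate is given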
HNF4A DNA FP: change in binding of human HNF4 alpha to DNA | activity change, % at 10 µM | P41235 | HNF4a-FITC DNA binding, fluorescence polarization, 1 h | 0.3% of 360,000 active; in the data active = activity change above about 30%, passing the limit was not always enough;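 note: controls were the assay level and a saturating level of protein; the project sought stronger binding though the title names inhibitors; some compounds called inactive have numbers as strong as hits; positive values seem to mean higher polarization but the record does not say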
Target sequence (P41235 whole entry, looked up): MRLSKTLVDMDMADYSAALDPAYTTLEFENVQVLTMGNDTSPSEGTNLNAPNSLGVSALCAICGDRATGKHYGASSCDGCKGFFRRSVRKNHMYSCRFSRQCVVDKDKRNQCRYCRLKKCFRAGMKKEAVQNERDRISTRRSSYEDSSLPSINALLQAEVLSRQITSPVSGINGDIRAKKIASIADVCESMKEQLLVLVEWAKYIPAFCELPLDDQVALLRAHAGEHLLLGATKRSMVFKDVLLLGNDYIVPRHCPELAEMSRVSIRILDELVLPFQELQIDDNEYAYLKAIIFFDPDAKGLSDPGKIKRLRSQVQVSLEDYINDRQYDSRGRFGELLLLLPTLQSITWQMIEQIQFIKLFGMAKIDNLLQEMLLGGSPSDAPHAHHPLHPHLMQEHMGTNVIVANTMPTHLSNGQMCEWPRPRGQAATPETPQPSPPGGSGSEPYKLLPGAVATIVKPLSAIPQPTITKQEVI
Ecoli growth: E. coli growth inhibition. 0.21% of 330,000 active. OD600 absorbance (concentration not given with the values). Escherichia coli growth, OD600, 23 h; stronger effect = lower value;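 active = OD600 absorbance below the run mean of sample wells minus 3.6 SD, in any replicate, cut at about 0.56 in these data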;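 note: stock transfer was 300 nL into about 60 µL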
rRNA inh HTS OD600: further read-out of rRNA inh HTS, marked with its call; OD600 change, %; measured here: OD600 growth;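 optical density of the mix in the first replicate; 0 = DMSO median and -100 = no signal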
rRNA inh HTS RFP: also measured in rRNA inh HTS; calls as there; RFP signal change, %; measured here: RFP humanized mutant strains;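 first replicate; 0 = DMSO median and -100 = no signal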
Active calls of the source: *; i = inactive; u = inconclusive; x = not tested or not shown; & = joins results of further samples. This is a subset, so the mix of outcomes need not match the whole.

SMILES | Vif TR-FRET | ALR inh | rRNA inh HTS | rRNA inh HTS OD600 | rRNA inh HTS RFP | FGF22 binding | AF4-AF9 inh | HNF4A DNA FP | Ecoli growth
O=C(OCC(=O)N1CCCC1=O)c1cccc(S(=O)(=O)N2CCOCC2)c1 | x | -2 | 8 | 5 | -2.1 | i | -2.0 | -2.0 | 0.66
Cc1c(C(=O)NCc2ccc(Cl)c(Cl)c2)sc(=O)n1Cc1ccc(C(=O)N(C)C)cc1 | x | x | -27 | -27 | 4.4 | i | -3.5 | 5.1 | x
CC(=O)N1[C@@H](CO)[C@@H](c2ccccc2)C12CN(C(=O)c1cnccn1)C2 | x | x | 3 | 15 | -3.1 | i | -2.2 | x | x
COc1ccc(NC(=O)N(C)C[C@H]2OCCCC[C@H](C)Oc3ccc(N(C)C)cc3C(=O)N([C@H](C)CO)C[C@H]2C)cc1 | x | x | 3 | 6 | -1.4 | i | 3.9 | x | x
CCOc1ccc(NC(=S)N2c3ccccc3CC2C)cc1 (configuration not stated) | 0% | -3 | 0 | 9 | 0.3 | i | 1.4 | -2.8 | 0.74
Cc1nc2ccc(NC(=O)Cc3ccc(Br)cc3)cc2s1 | -5% | -4 | -6 | -1 | -3.4 | i | 7.3 | -3.9 | 0.62
FC(F)(F)c1cc(Cl)c2nnc(-c3ccccn3)n2c1 | -7% | -3 | -10 | -11 | -8.7 | i | 0.6 | 2.4 | 0.65
COC(=O)c1c(NC(=O)C2C3C=CC(CC3)C2C(=O)O)sc(C)c1C (configuration not stated) | 6% | 18 | x | x | x | x | x | 0.2 | 0.65
CNS(=O)(=O)c1ccc(NCC2COc3ccccc3O2)c([N+](=O)[O-])c1 (configuration not stated) | x | -16 | x | x | x | x | x | 1.1 | 0.6
Nc1nc(SCc2ccc(F)cc2)n[nH]1 | x | -1 | 16 | 10 | 3.1 | i | -7.9 | -5.3 | 0.66
C/C=C/c1cnc2c(c1)C(=O)N([C@H](C)CO)C[C@@H](C)[C@H](CN(C)S(=O)(=O)c1cccs1)O2 | x | x | 1 | -3 | -1.3 | i | 1.5 | x | x
COc1ccc(C(=O)Nc2ccc(C(=O)O)cc2NC(=O)c2ccc(OC)cc2)cc1 | -10% | -10 | -7 | -13 | 1.2 | i | -0.1 | 4.2 | 0.64
O=C(Nc1nnc(-c2ccc(F)cc2)s1)c1c(F)cccc1Cl | x | 0 | 2 | 5 | 8.1 | i | 2.4 | -3.3 | 0.73
O=C(C[C@@H]1CC[C@@H](NC(=O)c2cccc(F)c2)[C@H](CO)O1)NCc1ccc(Oc2ccccc2)cc1 | x | x | -4 | -6 | -1.8 | i | -1.0 | x | x
COc1ccc([C@@H]2[C@@H]3C(=O)N(C(C)(C)C)C(=O)[C@@H]3[C@]3(C)C(=O)N(c4cccc(F)c4)C(=O)N23)cc1 | x | -13 | -7 | -10 | -8.6 | i | -1.5 | 2.0 | x
COc1ccc(NS(=O)(=O)c2cc([N+](=O)[O-])ccc2N/N=C\c2c(C)[nH]c3ccccc23)cc1 | -1% | 1 | x | x | x | x | x | 65* | x
O=C(Nc1ccc2c(c1)OCO2)C1COc2ccccc2O1 (configuration not stated) | 6% | -14 | x | x | x | x | x | 1.2 | 0.71
COc1ccc(C(=O)Cc2cnn(-c3ccccc3)c2)c(O)c1 | 10% | 2 | x | x | x | x | x | -4.5 | 0.72
CCN(CC(=O)Nc1ccc2c(c1)OCCO2)C(=O)c1ccc([N+](=O)[O-])s1 | 1% | x | -2 | -1 | -2.1 | i | -4.9 | 1.9 | 0.68
O=C(Nc1ccc(N2CCCCC2)cc1)c1cc([N+](=O)[O-])cc([N+](=O)[O-])c1 | 76% | -3 | 15 | 0 | -0.7 | i | 2.9 | 1.4 | 0.71
COc1ccc(C(=O)N2CCC(C(N)=O)CC2)cc1S(=O)(=O)N1CCCC1 | x | -6 | 1 | 18 | -3.8 | i | -2.2 | -0.1 | 0.67
COCC(=O)N(C)C[C@H]1Oc2ncc(C#CC3(O)CCCC3)cc2C(=O)N([C@@H](C)CO)C[C@H]1C | x | x | 3 | 17 | -1.8 | i | -2.1 | x | x
Nn1c(COc2ccccc2)nnc1SCc1cc(=O)[nH]c2ccccc12 | 11% | 5 | -4 | 2 | -2.8 | i | -2.8 | 3.2 | 0.63
COc1ccc(NC(=O)CCNC(=O)c2ccccc2Cl)cc1OC | 4% | -3 | 14 | 19 | -0.6 | i | 0.0 | 0.9 | 0.66
Cc1ccc(C(=O)NCCc2nnc3ccc(SCC(=O)Nc4ccccc4F)nn23)cc1 | x | 97* | -5 | -8 | 1.1 | i | 1.2 | -3.1 | 0.68
Going on with the list.
SMILES | Vif TR-FRET | ALR inh | rRNA inh HTS | rRNA inh HTS OD600 | rRNA inh HTS RFP | FGF22 binding | AF4-AF9 inh | HNF4A DNA FP | Ecoli growth
COC(=O)CSc1nc2sc3c(c2c(=O)n1-c1ccccc1)CCN(C)C3 | u | 100* | 1 | 5 | -4.7 | x | x | 4.9 | 0.69
Cc1ccc(Nc2cc(C)nc3nc(C)nn23)c(C)c1 | -9% | -11 | 3 | -4 | 0.5 | i | 3.4 | -1.1 | 0.71
CS(=O)(=O)N(CC(=O)Nc1ccccc1C(=O)NCc1ccccc1)c1ccc2c(c1)OCCO2 | 0%&10% | 3 | x | x | x | x | x | 0.8 | 0.67
O=C(Cc1ccc(S(=O)(=O)N2CCCC2)s1)NC1CCCCCC1 | 5% | -5 | x | x | x | x | x | 3.0 | 0.77
CCn1c(SCc2ccc(Cl)cc2)nc2nc3c(cc2c1=O)CCCC3 | x | x | -22* | -17* | -4.8* | i | 1.3 | 5.8 | 0.68
COc1ccc(-c2cc(C(N)=O)nc(N3CCCCCC3)n2)cc1 | 20% | 0 | x | x | x | x | x | -11 | 0.71
CCc1cccc(C)c1NC(=O)CSc1nc2ccc(N3C(=O)c4ccccc4C3=O)cc2s1 | -5% | -5 | x | x | x | x | x | 1.8 | 0.71
C=CCn1c(N)cc(=O)nc1SCC(=O)Nc1ccccc1 | -1% | x | x | x | x | x | x | 1.1 | 0.71
CN(CC(=O)Nc1sccc1C#N)S(=O)(=O)c1ccc(F)cc1 | 10% | x | -6 | -10 | 11 | i | 13 | 0.6 | 0.67
Cc1sc2ncnc(SCC(=O)c3cccs3)c2c1C | -30% | 10 | x | x | x | x | x | 4.2 | 0.71
O=C(c1ccco1)N1CCCC(Nc2ccc3c(c2)OCCO3)C1 (configuration not stated) | x | 99* | 8 | 14 | 1.9 | i | 4.3 | 4.2 | 0.73
CC(=O)c1ccc2noc(-c3ccc(C)cc3)c2c1 | -2% | 6 | -3 | -4 | 5.2 | i | 19 | 2.2 | 0.64
COc1ccc(NC(=O)CSc2n[nH]c(-c3ccco3)n2)cc1 | 7% | -10 | 1 | -2 | 1.9 | i | -2.1 | 0.8 | 0.64
C[C@H]1CN([C@@H](C)CO)C(=O)c2cccc(NC(=O)C3CCOCC3)c2O[C@H]1CN(C)S(=O)(=O)c1ccc(Cl)cc1 | x | x | 0 | 1 | -0.3 | i | -1.9 | x | x
Cc1ccc(-c2csc3ncn(CC(=O)OC(C)C)c(=O)c23)cc1 | x | 1 | -15 | -29 | -0.4 | i | -2.2 | -5.7 | 0.71
CCN(C(=O)COC(=O)/C=C/c1ccc(F)cc1)C1CCCCC1 | 2% | -3 | -7 | -61 | 5.6 | i | 1.1 | -3.0 | 0.69
Cc1ccccc1NC(=O)Nc1ccc2c(c1)CCC2 | x | -6 | 13 | 18 | 2.1 | i | -2.4 | -6.4 | 0.71
COc1ccc(CN(C)C[C@H]2Oc3ccc(NS(=O)(=O)c4ccc(Cl)cc4)cc3CC(=O)N([C@@H](C)CO)C[C@@H]2C)cc1 | x | x | -4 | -40 | 27 | i | 9.4 | x | x
Cc1cccc(OCC(=O)Nc2ccccc2N2CCCCC2)c1C | 7% | 0 | 9 | 1 | -0.8 | i | 3.9 | 2.4 | 0.67
COC(=O)c1c(-c2ccccc2OC)sc2ccccc12 | x | -14 | -26 | -46 | -29 | i | -1.0 | -2.9 | x
C[C@@H]1CN([C@H](C)CO)C(=O)c2cc(C#Cc3ccccc3)cnc2O[C@H]1CN(C)CC1CCOCC1 | x | x | 2 | 13 | -2.6 | i | 9.5 | x | x
COc1ccc(C(=O)CCC(=O)Nc2cccnc2)cc1 | u | x | -4 | 0 | 1.9 | i | -2.9 | -4.3 | 0.69
O=C(C[C@H]1CC[C@@H]2[C@H](COC[C@@H](O)CN2S(=O)(=O)c2ccccc2)O1)Nc1ccccc1 | x | x | -3 | 2 | -2.2 | i | -1.4 | x | x
COc1ccc(Cl)cc1C(=O)OCC(=O)Nc1cccnc1Cl | 20% | x | -5 | -30 | -6.3 | i | -1.9 | -1.7 | 0.6
Fc1cccc(Nc2nc(Cl)nc(Cl)n2)c1 | u | -5 | 8 | 12 | -1.1 | i | 12 | 7.6 | x
(more compounds)
SMILES | Vif TR-FRET | ALR inh | rRNA inh HTS | rRNA inh HTS OD600 | rRNA inh HTS RFP | FGF22 binding | AF4-AF9 inh | HNF4A DNA FP | Ecoli growth
CC(=O)N(C)C[C@H]1Oc2cc(C#Cc3ccncc3)ccc2S(=O)(=O)N([C@@H](C)CO)C[C@@H]1C | x | x | 0 | 1 | 0.7 | i | 3.7 | x | x
O=C(C[C@H]1CC[C@H]2[C@@H](COC[C@@H](O)CN2S(=O)(=O)c2ccccc2F)O1)N1CCC(Cc2ccccc2)CC1 | x | x | -14 | -24 | -2.0 | i | -20 | x | x
CCc1c(C)nc2c(-c3ccccc3)c(C)[nH]n2c1=O | x | 1 | -4 | -4 | -4.7 | i | 0.6 | 4.2 | 0.64
CC(C)COc1ccc(Br)cc1CNC(C)(C)C | 18% | 1 | 12 | 1 | 1.6 | i | 1.3 | 0.6 | 0.68
C[C@@H]1O[C@H](C2CC2)Cc2[nH]c(=S)[nH]c(=O)c21 | x | x | 26 | 16 | 0.4 | i | -1.5 | -0.6 | x
CC(=O)Nc1ccc(S(=O)(=O)N2CCN(C34CC5CC(CC(C5)C3)C4)CC2)cc1 | 31% | 3 | x | x | x | x | x | -3.1 | 0.73
CCCCNC(=S)N(C)/N=C/c1c(F)cccc1F | u | -4 | -11 | -6 | 9.0 | i | -21 | 1.4 | x
CCS(=O)(=O)N1CCC(C(=O)NCCCN2CCCC2)CC1 | -4% | -1 | 7 | 8 | -2.4 | x | x | 0.7 | 0.69
C[C@@H](NC(=O)c1cc2c([nH]c3ccccc32)c(-c2ccccc2)n1)C(=O)O | 4% | -7 | 1 | -15 | 6.1 | i | 0.6 | 0.4 | 0.68
COCC(=O)N(C)C[C@H]1Oc2cc(-c3ccccc3F)ccc2S(=O)(=O)N([C@@H](C)CO)C[C@H]1C | x | x | 0 | 0 | -3.1 | i | 0.2 | x | x
C=CCc1ccc(OCCCN2CCCC(C)C2)c(OC)c1 (configuration not stated) | 4% | -9 | x | x | x | x | x | -3.8 | 0.7
CCOC(=O)c1cc(=O)c2ccc(OCC(=O)Nc3ccccc3)cc2o1 | x | 1 | 20 | 9 | 2.9 | i | -1.5 | 5.8 | 0.68
COc1ccc(S(=O)(=O)Nc2ccc3c(c2)C(=O)N([C@H](C)CO)C[C@H](C)[C@H](CN(C)Cc2ccc(Oc4ccccc4)cc2)O3)cc1 | x | x | 4 | -7 | 8.8 | i | -0.6 | x | x
COc1ccc(NC(=O)Nc2ccc3c(c2)C(=O)N([C@H](C)CO)C[C@@H](C)[C@H](CN(C)S(=O)(=O)c2cccs2)OCCCC[C@H](C)O3)cc1 | x | x | 0 | 1 | 0.8 | i | -0.3 | x | x
CCc1cccc(CC)c1NC(=S)NCCc1ccc(O)c(O)c1 | 11% | 69 | -26 | -21 | -14 | i | 3.1 | 4.2 | 0.72
